RE007 growth inh – less growth of the S. pombe RE007 Vpr strain; S. pombe RE007 Vpr strain, BacTiter-Glo ATP luminescence, 24 h; control for the full effect not named in the record; Potency, µM (top dose mostly 92.2 µM), inactives show at the top dose activity change, negative = less growth; 0.21% of 360,000 active; active = well fitted falling curve with a large enough effect; inconclusive = small, poorly fitted or top-dose-only effect; inactive = no such curve, though single readings can be large or run the other way;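 also: nearly all actives have a fitted effect of over 50% in size; the assay follows cell death caused by Vpr and the record does not say whether a fall means rescue or toxicity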
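Fission yeast RE007 carrying one integrated HIV-1 vpr copy, seeded at OD 0.01 in PMG+AL medium with 23 nL pinned compound. Grown 24 h at 30 degrees; viability read by BacTiter-Glo luminescence after 5 min.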
2A StopGo – lowers the luciferase signal of an FMDV 2A StopGo reporter; 1.2% of 410,000 active; human cells with a luciferase reporter of 2A StopGo recoding; control for the full effect not named in the record; AID 1159524; Potency, µM (titrated, usually from 57.9 µM), for inactives: top-dose signal change, negative = less light; active = well fitted falling curve with a large enough effect; inconclusive = small, poorly fitted or top-dose-only effect; inactive = no such curve, though single readings can be large or run the other way; tested in HEK293T cells; also: nearly all actives have a fitted effect of over 45% in size; luciferase light after 4 h
An asterisk follows results filed as active; [ ] = dose if it differs, or a comment. % is scaled to controls: 0 for no effect and ±100 for the full control effect; potency is read from the fitted curve at half-maximal effect. A portion of the library; rates above refer to the full screens.

How did O=C(NCc1ccccc1)c1cc(C2CCCCN2C(=O)OCCF)on1 (stereo not drawn) do in these assays?
RE007 growth inh: 3.1%; 2A StopGo: -12.4%

What do the screens show for `Cc1nc2c(OCc3ccccc3)cccn2c1N(C)C(=O)C1CCCCC1`?
RE007 growth inh: -13.0%; 2A StopGo: -26.4%

How did O=C(N/N=C/c1ccc(O)cc1O)C1CC1 do in these assays?
RE007 growth inh: 2.2%; 2A StopGo: 9.0%

What do the screens show for `CCc1nc2ccc(C(=O)NCCC(C)C)cn2c1N(CC)CCN(C)C`?
RE007 growth inh: -21.9%; 2A StopGo: -6.2%

Results for COc1ccc(CCNC(=O)c2ccc(NC(=O)CC3SC(N4CCCCC4)=NC3=O)cc2)cc1 (stereo not drawn) ?
RE007 growth inh: -13.2%; 2A StopGo: -0.4%

How did CCOc1ccc(-c2cc(C(=O)NC3CCCCC3)[nH]n2)c(C)c1 do in these assays?
RE007 growth inh: 5.4%; 2A StopGo: 33.2%[activator]

How did COC(=O)CC1CC2(C(=O)OC)c3[nH]c4ccccc4c3CCN2C1=O (stereo not drawn) do in these assays?
RE007 growth inh: 8.2%[18.4 µM]; 2A StopGo: -14.9%

What do the screens show for `COc1ccc2c(c1)c1c(c(=O)n(-c3ccc(C)cc3)c(=O)n1CC(=O)NCC1CCCO1)n2C` (stereo not drawn)?
RE007 growth inh: -8.2%; 2A StopGo: -22.1%

Results for COc1ccc(C(=O)OCc2cc(=O)oc3cc(C)ccc23)cc1S(=O)(=O)N1CCOCC1 ?
RE007 growth inh: 0.3%; 2A StopGo: 1.1%

What do the screens show for `CSCCC(c1nc2ccccc2[nH]1)n1c(-c2ccc(C)cc2)nc2ccccc21` (stereo not drawn)?
RE007 growth inh: -11.8%; 2A StopGo: -3.0%

Results for COc1ccccc1NS(=O)(=O)c1ccc(C)c(C(=O)Nc2ccc(S(=O)(=O)Nc3onc(C)c3C)cc2)c1 ?
RE007 growth inh: -1.4%; 2A StopGo: -10.6%

Results for CCN(CC)c1c(C)nc2ccc(C(=O)NCc3ccc4c(c3)OCO4)cn12 ?
RE007 growth inh: 1.9%; 2A StopGo: -16.5%

Results for CCCCN1C=C(C(C)=O)C(=O)CC1 ?
RE007 growth inh: -3.6%; 2A StopGo: -16.7%

Results for C[C@H]1CC[C@@]2(O[C@@H](CCO)C[C@H](O)[C@H]2O)O1 ?
RE007 growth inh: -7.2%; 2A StopGo: 0.4%

Results for CCCNC(=O)c1cc2c(c(-c3cccc(-c4cc5ccccc5o4)c3)n1)[C@H](CCO)N(C(=O)NC(C)C)C2 ?
RE007 growth inh: -17.0%; 2A StopGo: inconclusive

What do the screens show for `Nc1ccn([C@@H]2O[C@H](C(=O)N[C@H](CO)Cc3ccccc3)[C@@H](O)[C@H]2O)c(=O)n1`?
RE007 growth inh: 4.2%; 2A StopGo: -10.0%

What do the screens show for `CCOC(=O)c1c(C)[nH]c(C(=O)OCc2nc3ccsc3c(=O)[nH]2)c1C`?
RE007 growth inh: -8.9%; 2A StopGo: 23.0%

Results for C=CS(=O)(=O)N(Cc1ccccc1Br)[C@H](CO)Cc1ccccc1 ?
RE007 growth inh: 3.2%; 2A StopGo: inconclusive

What do the screens show for `CC1(C(=O)NS(=O)(=O)c2cccc(OC(F)F)c2)CCN1C(=O)C/C=C/c1ccccc1` (stereo not drawn)?
RE007 growth inh: 1.8%; 2A StopGo: 4.6%

How did O=C(Nc1ccc(C(O)c2ccccc2)cc1)[C@@H]1O[C@H](CO)[C@H](O)[C@H](O)[C@H]1O (stereo partly drawn) do in these assays?
RE007 growth inh: 6.8%[18.4 µM]; 2A StopGo: -10.1%

Results for N#Cc1cccc(NC(=O)c2cc(C3CCCCN3C(=O)CCc3ccccc3)on2)c1 (stereo not drawn) ?
RE007 growth inh: -6.9%; 2A StopGo: -10.8%

Results for CC(O)(c1ccccc1)c1nc(-c2ccc(Cl)cc2)cs1 (stereo not drawn) ?
RE007 growth inh: inconclusive; 2A StopGo: -22.7%

Results for Cn1c(=O)c2cc(NC(=O)CCc3ccccc3)ccc2n1-c1ccccc1F ?
RE007 growth inh: 5.7%; 2A StopGo: inconclusive

Results for COc1ccccc1N1CC(C(=O)OCC(=O)c2c(N)n(C)c(=O)n(C)c2=O)CC1=O (stereo not drawn) ?
RE007 growth inh: -1.2%; 2A StopGo: -0.8%

What do the screens show for `COC(=O)C1=CN(c2ccccc2OC)C(N)=C(C#N)C1c1cccc([N+](=O)[O-])c1` (stereo not drawn)?
RE007 growth inh: 11.6%; 2A StopGo: -1.1%

Results for CCN(CC)C(=O)C1=C(C)N(Cc2ccc(F)cc2)C(=O)C(CC(=O)NCC2CCCCC2)C1 (stereo not drawn) ?
RE007 growth inh: -18.5%; 2A StopGo: -2.0%

How did COC(=O)[C@@]12C[C@@H](CC(=O)NCCCCc3ccccc3)C(=O)N(Cc3ccc4c(c3)OCO4)C1=CCC(C)(C)C2 do in these assays?
RE007 growth inh: 5.2%; 2A StopGo: -10.6%

How did CCc1nc2ccc(C(=O)NCc3ccc4c(c3)OCO4)cn2c1N(CC)CCOC do in these assays?
RE007 growth inh: -3.9%; 2A StopGo: -7.9%

What do the screens show for `O=[N+]([O-])c1ccc(NN=C2CC3CCC2C3)c([N+](=O)[O-])c1` (stereo not drawn)?
RE007 growth inh: 2.2%; 2A StopGo: 0.0%

What do the screens show for `COC(=O)C1=C(c2ccccc2)C[C@@H]2CC[C@H]1N2C(=O)N1CCOCC1`?
RE007 growth inh: -2.8%; 2A StopGo: -8.8%

What do the screens show for `Cc1ccccc1-c1cnc(C(O)c2ccc(F)c(F)c2)[nH]1` (stereo not drawn)?
RE007 growth inh: -13.5%[18.4 µM]; 2A StopGo: 96.5%[activator]

What do the screens show for `CC1CCC2(CC1)NC(=O)N(CC(=O)Nc1cccc(S(=O)(=O)N(C)c3ccccc3)c1)C2=O` (stereo not drawn)?
RE007 growth inh: 7.5%; 2A StopGo: -7.4%

Results for CC1(C(=O)NS(=O)(=O)c2ccc(F)cc2F)CCN1C(=O)Cc1cc(F)ccc1F (stereo not drawn) ?
RE007 growth inh: 1.4%[18.4 µM]; 2A StopGo: -13.9%

Results for CCCC(=O)N1CCC1(C)C(=O)NS(=O)(=O)c1ccccc1Cl (stereo not drawn) ?
RE007 growth inh: 4.6%; 2A StopGo: -18.6%

What do the screens show for `CCOC1=C2CN(S(=O)(=O)c3ccc(C)cc3)[C@H](c3ccccc3)C[C@@H]2N(S(C)(=O)=O)[C@H](c2ccccc2)C1`?
RE007 growth inh: -3.2%; 2A StopGo: -5.4%

Results for O=C(NCCS(=O)(=O)N1CCN(c2ccccc2)CC1)C12CC3CC(CC(C3)C1)C2 ?
RE007 growth inh: -20.6%; 2A StopGo: inconclusive

Results for NC(c1ccccc1)c1cccs1 (stereo not drawn) ?
RE007 growth inh: 2.3%; 2A StopGo: 5.9%

What do the screens show for `CC(=O)Nc1ccc(S(=O)(=O)N2Cc3ccccc3-n3nncc3C2)cc1`?
RE007 growth inh: -4.2%; 2A StopGo: -4.6%

Results for COc1ccc([C@H]2CN(c3ccc(OC)cc3)C(=O)[C@@H]2CC(=O)Nc2ccccc2)cc1 ?
RE007 growth inh: 0.0%; 2A StopGo: 37.0%[activator]

What do the screens show for `C[C@H]1CN([C@@H](C)CO)S(=O)(=O)c2ccc(Br)cc2O[C@@H]1CN(C)S(=O)(=O)c1ccccc1`?
RE007 growth inh: -24.4%; 2A StopGo: 6.0%

Brought forward from above: 4 entries, followed by the next part.
Results for NC(c1ccccc1)c1cccs1 (stereo not drawn) ?
RE007 growth inh: 2.3%; 2A StopGo: 5.9%

What do the screens show for `CC(=O)Nc1ccc(S(=O)(=O)N2Cc3ccccc3-n3nncc3C2)cc1`?
RE007 growth inh: -4.2%; 2A StopGo: -4.6%

Results for COc1ccc([C@H]2CN(c3ccc(OC)cc3)C(=O)[C@@H]2CC(=O)Nc2ccccc2)cc1 ?
RE007 growth inh: 0.0%; 2A StopGo: 37.0%[activator]

What do the screens show for `C[C@H]1CN([C@@H](C)CO)S(=O)(=O)c2ccc(Br)cc2O[C@@H]1CN(C)S(=O)(=O)c1ccccc1`?
RE007 growth inh: -24.4%; 2A StopGo: 6.0%

What do the screens show for `Cc1cc(C(F)(F)F)c2c(N)c(C(=O)NCc3ccc(Cl)cc3)sc2n1`?
RE007 growth inh: -10.2%; 2A StopGo: -13.7%

How did NNC(=O)Cc1cccc2ccc(Cl)cc12 do in these assays?
RE007 growth inh: -1.7%; 2A StopGo: -19.6%

How did COc1ccc(-c2nc3c(C)cc(Br)cn3c2Cc2cccc(F)c2)cc1OC do in these assays?
RE007 growth inh: -13.4%; 2A StopGo: 1.4%

What do the screens show for `COc1ccc(CCNC(=O)Nc2nc(C(N)Cc3ccccc3)cs2)cc1OC` (stereo not drawn)?
RE007 growth inh: -8.2%; 2A StopGo: -18.4%

Results for CC(C)(C)NC(=S)N1CCC2CC1c1cc(-c3ccc4c(c3)OCO4)ccc12 (stereo not drawn) ?
RE007 growth inh: 3.6%; 2A StopGo: 4.4%

How did CC(CCl)n1c(=O)c2ccccc2n1C(=O)c1ccccc1 (stereo not drawn) do in these assays?
RE007 growth inh: 42.3%; 2A StopGo: -17.6%

What do the screens show for `OC[C@@H]1CN(Cc2ccc(F)cc2)C[C@H](n2cnc3c(N4CCN(c5ccccc5)CC4)ncnc32)O1`?
RE007 growth inh: -7.8%[18.4 µM]; 2A StopGo: inconclusive

How did CC1=C(C(=O)N(C(C)C)C(C)C)CC(CC(=O)NCc2cccc3ccccc23)C(=O)N1Cc1ccccc1 (stereo not drawn) do in these assays?
RE007 growth inh: -13.5%; 2A StopGo: -11.6%

What do the screens show for `Cc1cccnc1C(NC(=O)C1CCN(CCCOc2ccc(F)cc2)CC1)c1ccccc1` (stereo not drawn)?
RE007 growth inh: 1.8%; 2A StopGo: -14.2%

Results for O=C1CCC[C@@H]2Cc3nc4cc5c(cc4cc3[C@@H]3CCN1[C@H]23)OCO5 ?
RE007 growth inh: inconclusive; 2A StopGo: 38.7%[activator]

What do the screens show for `C#CCNC(=O)C[C@@H]1C[C@@]2(C(=O)OCC)CCC=C2N(Cc2cccc3ccccc23)C1=O`?
RE007 growth inh: 2.5%; 2A StopGo: -1.8%

Results for COc1ccc([C@H]2/C=C\CN(C(=O)c3ccc(C)cc3)[C@@H](C)C(=O)N2Cc2ccc(F)cc2)cc1 ?
RE007 growth inh: -1.7%; 2A StopGo: -6.9%

Results for CN(Cc1ccc(Cl)cc1)C(=O)c1[nH]c(C(F)(F)F)nc1-c1ccccc1 ?
RE007 growth inh: 3.8%; 2A StopGo: -0.7%

What do the screens show for `c1ccc(COc2ccc(-c3cc4nc(NCCN5CCOCC5)ccn4n3)cc2)cc1`?
RE007 growth inh: -5.7%[18.4 µM]; 2A StopGo: -13.5%

How did CN(C)CCNc1nc(-c2ccccc2CO)c2sccc2n1 do in these assays?
RE007 growth inh: 8.2%; 2A StopGo: -11.2%

Results for CN(C(=O)c1cccc(NC(=O)Cc2ccc(NC(=O)C3CCN(C(=O)c4ccccc4)CC3)cc2)c1)C1CCCC1 ?
RE007 growth inh: 1.9%; 2A StopGo: -10.4%

Results for C[C@H]1CN([C@@H](C)CO)C(=O)CCCn2cc(nn2)CO[C@@H]1CN(C)C(=O)Nc1ccccc1C(F)(F)F ?
RE007 growth inh: -6.4%; 2A StopGo: -15.8%

What do the screens show for `CN(C)Cc1cn(CC[C@@H]2CC[C@@H](NC(=O)Nc3ccccc3F)[C@@H](CO)O2)nn1`?
RE007 growth inh: -3.9%; 2A StopGo: -24.5%

How did CNc1cc(-c2cccc(C(=O)N3CCOCC3)c2)ncn1 do in these assays?
RE007 growth inh: -4.7%[18.4 µM]; 2A StopGo: -3.6%

Results for NC(Cc1ccc(C(F)(F)F)cc1)c1csc(Nc2ccc(C(=O)NCCCO)cn2)n1 (stereo not drawn) ?
RE007 growth inh: 3.2%; 2A StopGo: -10.8%

Two neighbouring entries from above, quoted:
Results for CN(Cc1ccc(Cl)cc1)C(=O)c1[nH]c(C(F)(F)F)nc1-c1ccccc1 ?
RE007 growth inh: 3.8%; 2A StopGo: -0.7%

What do the screens show for `c1ccc(COc2ccc(-c3cc4nc(NCCN5CCOCC5)ccn4n3)cc2)cc1`?
RE007 growth inh: -5.7%[18.4 µM]; 2A StopGo: -13.5%

(more compounds)
Results for O=C(OCc1ccccc1C(F)(F)F)c1ccc(Br)c(S(=O)(=O)N2CCOCC2)c1 ?
RE007 growth inh: -9.2%; 2A StopGo: -23.4%

Results for C[C@H]1CN([C@@H](C)CO)S(=O)(=O)c2ccc(Br)cc2O[C@H]1CN(C)Cc1ccccc1F ?
RE007 growth inh: -7.3%; 2A StopGo: -12.8%

Results for CC1(C(=O)NS(=O)(=O)c2cccc(F)c2)CCN1C(=O)CC1CCCCC1 (stereo not drawn) ?
RE007 growth inh: -7.3%[18.4 µM]; 2A StopGo: -3.6%

Results for Nc1ncnc2c1ncn2[C@@H]1O[C@H](C(=O)NCCCN2CCCC2=O)[C@@H](O)[C@H]1O ?
RE007 growth inh: 1.7%; 2A StopGo: -9.3%

How did O=C1CNC(c2ccccc2)C(c2ccccc2)N1 (stereo not drawn) do in these assays?
RE007 growth inh: -6.1%; 2A StopGo: -3.8%

Results for Cc1nc(NC(=O)c2ccccc2)sc1-c1cc(C(=O)N2CCOCC2)nn1Cc1ccccc1 ?
RE007 growth inh: 7.3%; 2A StopGo: -30.2%
